Ran FRET: inhibitors of Ran–importin-beta complex formation, primary screen, biochemical, CFP-Ran/YFP-importin-beta FRET, RCC1, cell-free (AID 434961); Regulator of chromosome condensation (Homo sapiens) + GTP-binding nuclear protein Ran …; CFP-Ran/YFP-importin-beta FRET, cell-free; active compounds read high; inhibition, %; actives 0.2% (n = 7,700);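 active = more than half of the replicate wells above 15% inhibition; inconclusive = exactly half above it; inactive = fewer than half above it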;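 note: 0% = DMSO wells and 100% inhibition = RanGDP control wells on each plate; stock of unstated strength diluted about 400-fold; mean of two wells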
Numbers without * were called inactive; ? = inconclusive. Not all compounds are listed, so the mix of outcomes need not match the whole.

SMILES | Ran FRET
Cc1noc(C)c1S(=O)(=O)Nc1cccc2c1O[C@@H](CN(C)C(=O)Nc1ccc(C(F)(F)F)cc1)[C@@H](C)CN([C@H](C)CO)C2=O | 0.1
Cc1noc(C)c1S(=O)(=O)N(C)C[C@@H]1Oc2ccc(NC(=O)C3CCCCC3)cc2CC(=O)N([C@@H](C)CO)C[C@@H]1C | -3.6
C[C@H](CO)N1C[C@H](C)[C@@H](CN(C)C(=O)Nc2ccc(C(F)(F)F)cc2)Oc2c(NS(=O)(=O)c3cccs3)cccc2C1=O | 3.9
C[C@H](CO)N1C[C@H](C)[C@@H](CN(C)Cc2ccc(C(=O)O)cc2)Oc2ccc(NC(=O)C3CC3)cc2C1=O | 2.3
Cc1noc(C)c1NC(=O)Nc1ccc2c(c1)C(=O)N([C@H](C)CO)C[C@@H](C)[C@@H](CN(C)C(=O)C1CCCCC1)OCCCC[C@H](C)O2 | -2.6
C[C@@H]1CN([C@@H](C)CO)C(=O)CCCn2cc(nn2)CO[C@@H]1CN(C)Cc1ccncc1 | 1.3
CNC[C@H]1Oc2ccc(NS(=O)(=O)c3ccccc3)cc2CC(=O)N([C@H](C)CO)C[C@@H]1C | 2.2
Cc1noc(C)c1S(=O)(=O)Nc1ccc2c(c1)C(=O)N([C@H](C)CO)C[C@@H](C)[C@@H](CN(C)C)OCCCC[C@@H](C)O2 | 6.0
COc1ccc(NC(=O)Nc2cccc3c2O[C@H](CN(C)CC2CC2)[C@@H](C)CN([C@@H](C)CO)C3=O)cc1 | -1.0
C[C@H](CO)N1C[C@H](C)[C@H](CN(C)Cc2ccncc2)Oc2ccc(N(C)C)cc2CC1=O | ?
C[C@@H]1CN([C@H](C)CO)C(=O)c2cccc(NS(C)(=O)=O)c2O[C@H]1CN(C)C(=O)Nc1ccc(C(F)(F)F)cc1 | 3.5
C[C@H](CO)N1C[C@H](C)[C@H](CN(C)S(=O)(=O)c2ccc(C#N)cc2)Oc2ncc(-c3ccccc3)cc2C1=O | -1.5
CC(C)NC(=O)N(C)C[C@H]1OCCCC[C@H](C)Oc2ccc(NC(=O)Cc3ccccc3)cc2C(=O)N([C@H](C)CO)C[C@@H]1C | 6.4
Cc1noc(C)c1S(=O)(=O)N(C)C[C@@H]1OCCCC[C@@H](C)Oc2ccc(NS(C)(=O)=O)cc2C(=O)N([C@@H](C)CO)C[C@H]1C | 1.5
Cc1noc(C)c1NC(=O)Nc1ccc2c(c1)CC(=O)N([C@H](C)CO)C[C@@H](C)[C@H](CN(C)C(=O)NC(C)C)O2 | -2.6
C[C@H]1CN([C@@H](C)CO)C(=O)c2cccc(NS(=O)(=O)c3ccc(Cl)cc3)c2O[C@@H]1CN(C)Cc1ccc(C(=O)O)cc1 | -3.2
C[C@@H]1CCCCO[C@@H](CN(C)C(=O)CCC(F)(F)F)[C@@H](C)CN([C@H](C)CO)C(=O)c2cc(NC(=O)Cc3ccccc3)ccc2O1 | 1.5
CC(C)NC(=O)N(C)C[C@@H]1OCCCC[C@@H](C)Oc2ccc(NC(=O)Cc3ccccc3)cc2C(=O)N([C@H](C)CO)C[C@@H]1C | 1.6
C[C@@H]1CN([C@H](C)CO)C(=O)c2cccc(NC(=O)C3CCOCC3)c2O[C@H]1CN(C)Cc1ccc(C(F)(F)F)cc1 | -2.7
C[C@@H]1CN([C@@H](C)CO)C(=O)c2cc(NC(=O)Nc3ccc(F)cc3)ccc2O[C@@H]1CN(C)C(=O)NC1CCCCC1 | -3.4
COc1ccc(NC(=O)Nc2ccc3c(c2)C(=O)N([C@H](C)CO)C[C@@H](C)[C@@H](CN(C)Cc2ccc(C(=O)O)cc2)O3)cc1 | -0.3
C[C@@H]1CN([C@H](C)CO)C(=O)c2cc(N(C)C)ccc2O[C@@H](C)CCCCO[C@H]1CN(C)S(=O)(=O)c1ccccc1 | 1.1
Cc1noc(C)c1NC(=O)N(C)C[C@@H]1OCCCC[C@H](C)Oc2ccc(NS(C)(=O)=O)cc2C(=O)N([C@@H](C)CO)C[C@@H]1C | -1.0
C[C@@H]1CN([C@@H](C)CO)C(=O)Cc2cc(NC(=O)Nc3ccc4c(c3)OCO4)ccc2O[C@H]1CN(C)C(=O)Nc1ccc2c(c1)OCO2 | -5.4
Cc1noc(C)c1NC(=O)N(C)C[C@H]1Oc2c(NS(=O)(=O)c3cn(C)cn3)cccc2C(=O)N([C@H](C)CO)C[C@H]1C | -3.4

(continued)
SMILES | Ran FRET
C[C@@H]1CN([C@@H](C)CO)C(=O)Cc2cc(NC(=O)NC3CCCCC3)ccc2O[C@H]1CN(C)C | 7.6
C[C@H]1CN([C@@H](C)CO)C(=O)c2cccc(NS(=O)(=O)c3ccc(Cl)cc3)c2O[C@H]1CN(C)S(=O)(=O)c1cccs1 | -1.9
C[C@@H]1CCCCO[C@@H](CN(C)S(=O)(=O)c2cn(C)cn2)[C@H](C)CN([C@H](C)CO)C(=O)c2cc(NS(C)(=O)=O)ccc2O1 | 9.7
C[C@H](CO)N1C[C@H](C)[C@H](CN(C)CC2CC2)Oc2ccc(NC(=O)Nc3ccc(F)cc3)cc2CC1=O | 0.4
C[C@@H]1CN([C@@H](C)CO)C(=O)c2cc(NC(=O)NC3CCCCC3)ccc2O[C@@H]1CN(C)S(=O)(=O)c1cccs1 | -0.4
C[C@H](CO)N1C[C@H](C)[C@H](CN(C)S(=O)(=O)c2ccccc2)OCCCC[C@H](C)Oc2ccc(NC(=O)c3ccncc3)cc2C1=O | 4.3
C[C@H](CO)N1C[C@H](C)[C@H](CN(C)Cc2ccc(Cl)c(Cl)c2)Oc2c(NC(=O)C3CCOCC3)cccc2C1=O | -2.3
C[C@@H]1CCCCO[C@@H](CN(C)Cc2ccc(C(=O)O)cc2)[C@H](C)CN([C@@H](C)CO)C(=O)c2cc(NC(=O)Nc3ccc(F)cc3)ccc2O1 | 2.4
C[C@H](CO)N1C[C@H](C)[C@@H](CN(C)C(=O)Nc2ccc(C(C)(C)C)cc2)OCc2cnnn2CCCC1=O | ?
Cc1noc(C)c1NC(=O)Nc1cccc2c1O[C@H](CN(C)Cc1ccc(Cl)c(Cl)c1)[C@H](C)CN([C@@H](C)CO)C2=O | -1.0
CNC[C@@H]1Oc2c(NC(=O)c3cnccn3)cccc2C(=O)N([C@@H](C)CO)C[C@@H]1C | -1.2
C[C@@H]1CN([C@H](C)CO)C(=O)c2cc(NC(=O)C3CC3)ccc2O[C@@H]1CN(C)C(=O)Nc1ccc(F)cc1 | 0.8
CC(C)NC(=O)N(C)C[C@@H]1Oc2ccc(NC(=O)CCN3CCOCC3)cc2CC(=O)N([C@@H](C)CO)C[C@@H]1C | -1.2
C[C@@H]1CN([C@@H](C)CO)C(=O)c2cc(N(C)C)ccc2O[C@@H]1CN(C)Cc1ccccc1 | -4.1
CNC[C@H]1Oc2c(NC(=O)c3cnccn3)cccc2C(=O)N([C@@H](C)CO)C[C@@H]1C | 3.4
Cc1noc(C)c1NC(=O)Nc1ccc2c(c1)CC(=O)N([C@H](C)CO)C[C@H](C)[C@H](CN(C)S(=O)(=O)c1cccs1)O2 | 0.9
CNC[C@@H]1Oc2c(NC(=O)c3ccncc3)cccc2C(=O)N([C@H](C)CO)C[C@@H]1C | 7.2
CNC[C@H]1OCCCC[C@@H](C)Oc2ccc(N(C)C)cc2C(=O)N([C@H](C)CO)C[C@H]1C | ?
COc1ccc(CN(C)C[C@@H]2Oc3ccc(NC(=O)Cc4cn(C)c5ccccc45)cc3CC(=O)N([C@@H](C)CO)C[C@@H]2C)cc1 | -5.0
C[C@H]1CN([C@@H](C)CO)C(=O)c2cc(NC(=O)NC3CCCCC3)ccc2O[C@H]1CN(C)Cc1ccc2c(c1)OCO2 | 2.6
C[C@@H]1CN([C@H](C)CO)C(=O)c2cc(NS(=O)(=O)c3cccs3)ccc2O[C@@H]1CN(C)Cc1ccc(-c2ccccc2)cc1 | 2.0
Cc1noc(C)c1NC(=O)Nc1cccc2c1O[C@@H](CN(C)Cc1ccc3c(c1)OCO3)[C@@H](C)CN([C@H](C)CO)C2=O | -1.4
C[C@@H]1CCCCO[C@@H](CN(C)Cc2ccccc2)[C@@H](C)CN([C@H](C)CO)C(=O)c2cc(NS(=O)(=O)c3cccs3)ccc2O1 | 0.7
Cc1noc(C)c1S(=O)(=O)Nc1ccc2c(c1)CC(=O)N([C@H](C)CO)C[C@H](C)[C@@H](CN(C)S(=O)(=O)c1ccccc1)O2 | -2.5
C[C@@H]1CN([C@H](C)CO)C(=O)c2cc(NS(=O)(=O)c3cn(C)cn3)ccc2O[C@@H](C)CCCCO[C@H]1CN(C)S(=O)(=O)c1cn(C)cn1 | -3.7

Taken from the entries so far (14 entries):
SMILES | Ran FRET
C[C@@H]1CN([C@H](C)CO)C(=O)c2cc(NC(=O)C3CC3)ccc2O[C@@H]1CN(C)C(=O)Nc1ccc(F)cc1 | 0.8
CC(C)NC(=O)N(C)C[C@@H]1Oc2ccc(NC(=O)CCN3CCOCC3)cc2CC(=O)N([C@@H](C)CO)C[C@@H]1C | -1.2
C[C@@H]1CN([C@@H](C)CO)C(=O)c2cc(N(C)C)ccc2O[C@@H]1CN(C)Cc1ccccc1 | -4.1
CNC[C@H]1Oc2c(NC(=O)c3cnccn3)cccc2C(=O)N([C@@H](C)CO)C[C@@H]1C | 3.4
Cc1noc(C)c1NC(=O)Nc1ccc2c(c1)CC(=O)N([C@H](C)CO)C[C@H](C)[C@H](CN(C)S(=O)(=O)c1cccs1)O2 | 0.9
CNC[C@@H]1Oc2c(NC(=O)c3ccncc3)cccc2C(=O)N([C@H](C)CO)C[C@@H]1C | 7.2
CNC[C@H]1OCCCC[C@@H](C)Oc2ccc(N(C)C)cc2C(=O)N([C@H](C)CO)C[C@H]1C | ?
COc1ccc(CN(C)C[C@@H]2Oc3ccc(NC(=O)Cc4cn(C)c5ccccc45)cc3CC(=O)N([C@@H](C)CO)C[C@@H]2C)cc1 | -5.0
C[C@H]1CN([C@@H](C)CO)C(=O)c2cc(NC(=O)NC3CCCCC3)ccc2O[C@H]1CN(C)Cc1ccc2c(c1)OCO2 | 2.6
C[C@@H]1CN([C@H](C)CO)C(=O)c2cc(NS(=O)(=O)c3cccs3)ccc2O[C@@H]1CN(C)Cc1ccc(-c2ccccc2)cc1 | 2.0
Cc1noc(C)c1NC(=O)Nc1cccc2c1O[C@@H](CN(C)Cc1ccc3c(c1)OCO3)[C@@H](C)CN([C@H](C)CO)C2=O | -1.4
C[C@@H]1CCCCO[C@@H](CN(C)Cc2ccccc2)[C@@H](C)CN([C@H](C)CO)C(=O)c2cc(NS(=O)(=O)c3cccs3)ccc2O1 | 0.7
Cc1noc(C)c1S(=O)(=O)Nc1ccc2c(c1)CC(=O)N([C@H](C)CO)C[C@H](C)[C@@H](CN(C)S(=O)(=O)c1ccccc1)O2 | -2.5
C[C@@H]1CN([C@H](C)CO)C(=O)c2cc(NS(=O)(=O)c3cn(C)cn3)ccc2O[C@@H](C)CCCCO[C@H]1CN(C)S(=O)(=O)c1cn(C)cn1 | -3.7

Next compounds follow:
SMILES | Ran FRET
CNC[C@@H]1Oc2ccc(NC(=O)Cn3cnnn3)cc2CC(=O)N([C@H](C)CO)C[C@H]1C | 4.2
C[C@H](CO)N1C[C@H](C)[C@@H](CN(C)Cc2ccc3c(c2)OCO3)Oc2ccc(NC(=O)CCC(F)(F)F)cc2CC1=O | 1.7
C[C@H]1CN([C@@H](C)CO)C(=O)c2cc(N(C)C)ccc2O[C@@H]1CN(C)Cc1ccc2c(c1)OCO2 | 2.6
COc1ccc(S(=O)(=O)Nc2ccc3c(c2)CC(=O)N([C@@H](C)CO)C[C@H](C)[C@H](CN(C)Cc2ccc(C(F)(F)F)cc2)O3)cc1 | -3.9
CC(C)NC(=O)N(C)C[C@H]1OCCCC[C@@H](C)Oc2ccc(NC(=O)CCC(F)(F)F)cc2C(=O)N([C@@H](C)CO)C[C@H]1C | -0.4
Cc1noc(C)c1S(=O)(=O)N(C)C[C@H]1Oc2ccc(NC(=O)Nc3cccc4ccccc34)cc2CC(=O)N([C@@H](C)CO)C[C@H]1C | -0.9
C[C@@H]1CN([C@H](C)CO)C(=O)c2cc(NC(=O)C3CC3)ccc2O[C@H]1CN(C)C(=O)Nc1ccc(F)cc1 | 1.6
CC(C)NC(=O)N(C)C[C@@H]1OCCCC[C@@H](C)Oc2ccc(NC(=O)c3ccncc3)cc2C(=O)N([C@H](C)CO)C[C@H]1C | -0.4
Cc1noc(C)c1NC(=O)Nc1ccc2c(c1)CC(=O)N([C@@H](C)CO)C[C@@H](C)[C@@H](CN(C)S(=O)(=O)c1cn(C)cn1)O2 | -1.5
C[C@H](CO)N1C[C@H](C)[C@H](CN(C)C)OCCCC[C@H](C)Oc2ccc(NS(=O)(=O)c3cccs3)cc2C1=O | -2.1
CC(C)NC(=O)N(C)C[C@@H]1OCCCC[C@H](C)Oc2ccc(NS(=O)(=O)c3cn(C)cn3)cc2C(=O)N([C@H](C)CO)C[C@@H]1C | -5.5
C[C@H](CO)N1C[C@H](C)[C@@H](CN(C)Cc2ccc(C(=O)O)cc2)Oc2c(NC(=O)C3CCOCC3)cccc2C1=O | -1.0
C[C@H]1CN([C@@H](C)CO)C(=O)c2cccc(NS(C)(=O)=O)c2O[C@@H]1CN(C)Cc1ccc(Oc2ccccc2)cc1 | -2.6

2 records drawn at random from those above, as already listed:
SMILES | Ran FRET
Cc1noc(C)c1S(=O)(=O)N(C)C[C@H]1Oc2ccc(NC(=O)Nc3cccc4ccccc34)cc2CC(=O)N([C@@H](C)CO)C[C@H]1C | -0.9
CC(C)NC(=O)N(C)C[C@H]1OCCCC[C@@H](C)Oc2ccc(NC(=O)CCC(F)(F)F)cc2C(=O)N([C@@H](C)CO)C[C@H]1C | -0.4
